Bioassay records (PubChem)
miR-21 FLuc: raises the signal of a miR-21 reporter | Potency, µM (top dose mostly 38.3 µM), without a hit: top-dose reporter change, positive = more light | AID 2288 | HeLa miR-21 FLuc reporter, luciferase, 48 h | 340,000 tested, under 10 active; active = well fitted rising curve with a large enough effect; inconclusive = small, poorly fitted or top-dose-only effect; inactive = no such curve, though single readings can be large or run the other way;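 further: % of control where 0% means no effect; miR-21 action dims this reporter so a rising signal means less miR-21 action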
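HeLa cells stably expressing CMV-driven firefly luciferase with a downstream miR-21 binding sequence, endogenously expressing miR-21, were treated with titrations (up to about 40uM final) for 48 hours at 37 degree Celsius. Luciferase luminescence was read after lysis.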
Rango complex inh: prevents formation of the Rango-importin beta complex. Q14974. Rango CFP/YFP FRET sensor + importin beta, 45 min. Potency, µM (series often up to 92.2 µM), without a hit: at the highest dose inhibition of complex formation. hit rate 0.031% among 340,000. AID 540263; active = rising FRET ratio curve, often small or poorly fitted; inconclusive = mostly compound fluorescence or quenching in the first reads; inactive = flat curves in all reads;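 further: potency means the concentration at half of the fitted maximal effect; 0% = DMSO wells and 100% = buffer wells lacking importin beta; nearly all actives have a fitted effect of over 15% in size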
Target sequence (Q14974 whole entry, looked up): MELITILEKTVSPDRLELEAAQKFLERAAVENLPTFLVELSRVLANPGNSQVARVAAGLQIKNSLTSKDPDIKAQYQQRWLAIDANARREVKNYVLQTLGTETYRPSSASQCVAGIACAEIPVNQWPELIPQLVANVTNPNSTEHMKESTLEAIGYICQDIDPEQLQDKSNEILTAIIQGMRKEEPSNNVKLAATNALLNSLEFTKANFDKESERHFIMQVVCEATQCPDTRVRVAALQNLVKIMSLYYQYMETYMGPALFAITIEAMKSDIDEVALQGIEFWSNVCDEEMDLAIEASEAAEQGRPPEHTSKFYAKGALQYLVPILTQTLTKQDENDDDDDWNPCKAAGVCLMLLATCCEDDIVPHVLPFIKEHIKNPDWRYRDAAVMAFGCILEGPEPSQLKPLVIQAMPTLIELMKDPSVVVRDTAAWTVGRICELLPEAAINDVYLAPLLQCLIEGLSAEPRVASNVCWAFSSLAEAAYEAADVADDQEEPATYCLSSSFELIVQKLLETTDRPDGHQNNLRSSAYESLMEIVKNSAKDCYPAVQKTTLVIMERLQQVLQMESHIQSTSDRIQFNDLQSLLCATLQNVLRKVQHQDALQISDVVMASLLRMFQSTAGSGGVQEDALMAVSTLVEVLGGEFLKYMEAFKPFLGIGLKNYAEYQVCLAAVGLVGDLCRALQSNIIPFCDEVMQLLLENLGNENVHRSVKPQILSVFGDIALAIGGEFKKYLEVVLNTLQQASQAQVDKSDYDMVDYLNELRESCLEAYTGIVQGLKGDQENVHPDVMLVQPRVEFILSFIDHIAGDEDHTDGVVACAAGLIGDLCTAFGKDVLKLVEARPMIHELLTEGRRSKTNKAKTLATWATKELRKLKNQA
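FRET biosensor Rango (snurportin 1 IBB between N-terminal EYFP and C-terminal Cerulean), 50 nM in PBS/1 mM DTT/0.02% Tween-20/0.1% BSA, preincubated 5 min RT with compound; 0.125 microM importin beta added, 45 min RT, CFP/YFP FRET ratio read.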
Rango dissoc inh: prevents RanGTP from dissociating the Rango-importin beta complex | O95149+P62826 | Biochemical FRET Rango-importin beta, RanGTP-induced dissociation | Potency, µM (titrated, usually from 46.1 µM), for inactives: at the highest dose activity change, negative = inhibition | hit rate 0.071% among 340,000 | AID 540253; active means falling FRET ratio curve, often poorly fitted, with flat reads before Ran was added; inconclusive means other falling curves, or compound fluorescence or quenching; inactive means flat or rising ratio curve;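 further: potency means the concentration at half of the fitted maximal effect; % of control where 0% means no effect; nearly all actives have a fitted effect of over 45% in size; -100% = wells without RanGTP and RCC1; the record marks most hits as doubtful in a second field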
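Compounds sat 5 min at room temperature with 0.1 uM Rango biosensor plus 0.25 uM importin beta, then FRET pre-read. RanGTP-RCC1 (0.6 uM Ran, 2mM GTP, 0.2 uM RCC1) added for 45 min, and the CFP/YFP post-read measured blocked complex dissociation.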
GLA inh pH 4.5: alpha-galactosidase A (human) inhibition, pH 4.5; P06280; purified enzyme, 4-MU-alpha-Gal fluorescence, pH 4.5; activity change, negative = inhibition, % at 105 µM; 230,000 tested, under 10 active; inconclusive = small, poorly fitted or top-dose-only inhibition, or a rising curve; inactive = flat fitted curve, though single readings scatter; no compound was filed as active;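 further: 0% = full activity with enzyme and -100% = basal without enzyme; dose as in the result columns while the protocol names 77 µM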
Active calls of the source: *; ? = inconclusive; nt = not tested or not shown. These rows are one share of the data; the hit share may differ from the screen's.

entry	canonical_smiles	miR-21 FLuc	Rango complex inh	Rango dissoc inh	GLA inh pH 4.5
1	CC(C)(C)c1ccc(C(=O)Nc2ccc(C(=O)N3CCCC3)cc2)cc1	2%	2.7%	-5%	nt
2	Cc1ccc(NC(=O)CSc2nnc(-c3ccc(S(=O)(=O)N4CCOCC4)cc3)n2C)cc1	-3%	-3.6%	-6%	-6
3	CCCC(C)NC(=O)c1ccccc1SC (centres undefined)	1%	-1.2%	-4%	-3
4	NC(=NC(=O)c1cccc(C(F)(F)F)c1)c1ccc(C(F)(F)F)cn1	-26%	2.5%	1%	-19
5	O=c1[nH]c(CN2CCN(C/C=C/c3ccccc3)CC2)nc2cc(Cl)ccc12	-2%	-1.4%	-2%	3
6	COc1cc(CNC2CCCCCCC2)cc(Br)c1OCC#N	-7%	0.0%	-11%	2
7	O=C(CCCN1C(=O)/C(=C\c2ccccc2)SC1=S)Nc1ccccc1O	1%	1.5%	2%	-3
8	O=[N+]([O-])c1ccc(OCn2cncn2)cc1	nt	4.3%	-17%	nt
9	O=C(OCCNC(=O)c1cc2ccccc2oc1=O)c1cccnc1	-2%	-0.3%	-5%	4
10	CCCOc1ccc(N2C(=O)CC(N3CCN(S(=O)(=O)c4ccccc4)CC3)C2=O)cc1 (centres undefined)	-1%	-1.1%	2%	0
11	Cn1c(=O)c2c(ncn2CC(COCc2ccccc2)OCc2ccccc2)n(C)c1=O (centres undefined)	-2%	-1.6%	6%	1
12	Cc1cccnc1NC(=O)CNC(=O)C1CCCCC1	nt	0.0%	9%	nt
13	O=C(Nc1nnc(-c2ccc(Cl)cc2)o1)c1ccccc1Br	-1%	0.3%	0%	-12
14	O=C(Cc1cccs1)NCc1cccnc1	-4%	-3.7%	15%	1
15	CCOC(=O)c1cc(-c2cc(OC)c(OC)c(OC)c2)nc2c1c(=O)[nH]c(=O)n2Cc1ccccc1	0%	?	?	0
16	COCCn1c(C)cc(C(=O)CSc2nc3ccccc3s2)c1C	16%	-4.3%	10%	10
17	O=C(NC1CC2CCC(C1)N2Cc1nnnn1Cc1ccco1)NC12CC3CC(CC(C3)C1)C2 (centres undefined)	4%	3.3%	-1%	?
18	NNC(=O)COc1ncn(-c2ccccc2)n1	-8%	-0.5%	-4%	0
19	Fc1ccc2[nH]c3c(N4CCSCC4)ncnc3c2c1	29%	1.6%	20%	2
20	CCc1c(Cl)nc(N)nc1Nc1ccccc1C	nt	1.9%	-7%	nt
21	COc1ccc(NC(=O)COC(=O)[C@@H]2CCCN2C(=O)c2cccs2)c(OC)c1	-1%	2.2%	-20%	-3
22	NC(=S)N/N=C1\CC(c2ccc3c(c2)OCCCO3)Oc2ccc(F)cc21 (centres undefined)	21%	0.7%	13%	-5
23	O=C(Nc1ccccc1)Nc1ccc(Nc2ccccc2)cc1	nt	-0.7%	-7%	nt
24	CN(C)CCNc1nc2sc3c(c2c(=O)n1-c1ccccc1)CCCCC3	-13%	0.2%	-8%	1
25	CC(C)C[C@H](NC(=O)C1CC(=O)N(c2ccc3c(c2)OCO3)C1)C(=O)NC1CCCC1 (some centres undefined)	-5%	-2.0%	-3%	nt
26	O=C(CCCNC(=O)c1ccc(Cl)cc1)Nc1ccc(Br)cc1	-4%	-1.2%	19%	nt
27	Nc1[nH]c(=O)[nH]c(=O)c1N=Nc1ccc(C(=O)O)cc1	0%	-2.3%	-16%	nt
28	Cc1c(Br)c([N+](=O)[O-])nn1C(C)C(=O)Nc1c(C)n(C)n(-c2ccccc2)c1=O (centres undefined)	-2%	-1.7%	3%	-1
29	Cc1ccc(N(CCC#N)C(=O)COC(=O)c2ccccc2SCC(=O)N2CCCC2)cc1	nt	-0.2%	0%	nt
30	O=C(Cn1cncn1)N1CCN(c2ccc(F)cc2)CC1	3%	-0.6%	-4%	3
31	O=C(CCN1CCCCC1)c1ccc2c(c1)OCCO2	11%	4.1%	13%	6
32	COC(=O)c1ccc(CSc2ccc3nnc(-c4ccccn4)n3n2)o1	-14%	3.2%	-3%	3
33	Cn1c(=O)c2c(SCC(=O)NCC3CCCO3)nc(-c3cccs3)nc2n(C)c1=O (centres undefined)	-2%	nt	nt	8
34	COCCNC(=O)CS(=O)Cc1nc(-c2ccccc2C)oc1C (centres undefined)	-2%	-1.0%	-2%	-7
35	Cc1ccc(Nc2nc(-c3cccnc3)cs2)cc1Cl	-49%	1.0%	3%	nt
36	NC(=O)N1OCC2COc3ccc4ccccc4c3C21 (centres undefined)	-1%	0.3%	4%	-19
37	COC(=O)C(Cc1ccccc1)NC(=O)CCNC(=O)c1ccc(Br)cc1 (centres undefined)	3%	-0.1%	0%	nt
38	CC[C@]12c3[nH]c4ccc(OC)cc4c3CCN1C(=O)C(CC(=O)NCCCN(C)C)C[C@@H]2C(=O)N1CCN(C(=O)c2ccco2)CC1 (some centres undefined)	nt	5.8%	5%	nt
39	COc1ccc(NS(=O)(=O)c2ccc(C)c(C(=O)N3CC(C)OC(C)C3)c2)cc1 (centres undefined)	nt	5.2%	4%	nt
40	COc1ccc(N2C(=O)C3CCCN3C2c2ccc(C)o2)cc1 (centres undefined)	-2%	0.5%	-1%	15
41	CC1CN(c2nc(-c3ccccc3)nnc2-c2ccccc2)CC(C)O1 (centres undefined)	-6%	1.3%	9%	6
42	CCOc1ccc(C(=O)Nc2ccccc2C(=O)O)cc1	23%	3.5%	0%	0
43	C[C@H](CO)N1C[C@H](C)[C@@H](CN(C)S(=O)(=O)c2ccc(F)cc2)Oc2c(NC(=O)NC3CCCCC3)cccc2C1=O	nt	1.3%	0%	nt
44	Cc1ccc(SCCC(=O)N/N=C/c2ccccc2O)cc1	14%	-1.1%	-12%	-1
45	COc1ccc(NC(=O)Cc2c(F)cccc2Cl)c(OC)c1	-12%	-12%	0%	6
46	CCOc1ccc(N(CC(N)=O)S(=O)(=O)c2ccc(F)cc2)cc1	-2%	2.7%	1%	11
47	CCC(=O)N=C1SC2CS(=O)(=O)CC2N1c1cccc(OC)c1 (centres undefined)	-4%	-0.5%	-2%	-1
48	COc1ccc2cc(CN(Cc3cccnc3)Cc3nnnn3Cc3ccccc3)c(=O)[nH]c2c1	-4%	-0.1%	5%	5
49	OCc1cnc(SCc2ccccc2)n1Cc1ccccc1	-4%	-1.8%	6%	1
50	NC(=O)c1ccsc1NC(=O)COC(=O)c1cnccn1	nt	-3.3%	-15%	nt
51	O=c1c2c([N+](=O)[O-])cc([N+](=O)[O-])cc2nc2ccccn12	-1%	4.8%	3%	nt
52	O=C(CCS(=O)(=O)c1ccc(F)cc1)Nc1nc(-c2ccccn2)cs1	20%	4.4%	6%	nt
53	CC(=O)Nc1cccc(Oc2ccc3c(c2)C(=O)N(CCC(=O)O)C3=O)c1	-1%	0.3%	8%	0
54	Cc1cccc(NC(=O)N2CCC(c3nc4ccccc4o3)CC2)c1	-6%	-1.9%	-6%	-2
55	CC(C)(C)NS(=O)(=O)CC12CCC(CC1=O)C2(C)C (centres undefined)	4%	1.6%	3%	-3
56	O=C(Cn1nnc2ccccc21)Nc1ccccc1[N+](=O)[O-]	-2%	-2.2%	-11%	6

(next part)
entry	canonical_smiles	miR-21 FLuc	Rango complex inh	Rango dissoc inh	GLA inh pH 4.5
57	O=C(CN1CCCC1)N1c2ccccc2Sc2ccc(C(F)(F)F)cc21	-11%	-1.4%	1%	-10
58	COc1ccccc1-n1c(SCC(=O)Nc2cccc(C(=O)O)c2)nnc1-c1ccccc1O	-7%	-0.3%	-2%	nt
59	O=C(NNC(=O)C1CC2CCC1C2)c1sc2ccccc2c1Cl (centres undefined)	-60%	-0.3%	2%	3
60	CC/C(=N\NC(=O)C1CC1)c1cccc(Cl)c1	-13%	3.2%	2%	4
61	O=C(c1cnccn1)N1CCc2c([nH]c3ccccc23)C1c1cccc(Cl)c1 (centres undefined)	14%	-3.6%	-1%	-1
62	COc1ccc(C2Nc3ccccc3C(=O)N2NS(=O)(=O)c2ccc(C)cc2)c(OC)c1 (centres undefined)	-1%	0.1%	7%	nt
63	COC(=O)C1=C(C)Nc2nc(SCc3ccccc3)[nH]c(=O)c2C1c1cccs1 (centres undefined)	2%	0.8%	5%	3
64	Cc1ccccc1-n1nc(CSc2nc3ccccc3[nH]2)c(-c2ccccc2)c1N	-7%	-1.6%	-8%	-8
65	Cn1c(CNc2ccc(Cl)cc2)nnc1SCCN1CCCCC1	-7%	-1.6%	-5%	5
66	Cc1ccc(N(C(C)C(=O)Nc2ccccc2C(=O)N2CCOCC2)S(C)(=O)=O)cc1C (centres undefined)	-8%	-3.0%	-19%	8
67	O=C1[C@H]2[C@@H](c3ccc(F)cc3)N3C(=O)N(c4cccc(Cl)c4)C(=O)[C@@]3(Cc3ccc(Cl)cc3)[C@H]2C(=O)N1C1CCCCC1	0%	-1.4%	-2%	nt
68	Cc1cccc(C)c1OCC(=O)NNC(=O)CCNC(=O)c1ccco1	nt	-0.1%	-9%	nt
69	O=S(=O)(NCCSc1nc2ccccc2o1)c1ccccc1	-12%	10%	16%	-2
70	CCc1ccc(C(=O)NNC(=O)c2cc(S(=O)(=O)N(C)C)ccc2N2CCCC2)cc1	-24%	0.9%	-20%	nt
71	O=C1C2C3C=CC(C3)C2C(=O)N1CCc1ccccc1 (centres undefined)	-7%	-2.5%	-6%	-6
72	NC(=O)c1cc[n+](Cc2ccccc2Cl)cc1	0%	-1.8%	-6%	nt
